MARV entry inh – qHTS for inhibitors of binding or entry into cells for Marburg Virus; Marburg virus pseudotyped entry inhibition, cell reporter; control for the full effect not named in the record; about a third of the inactives were read at about 46 µM; AID 540276, 2011; Potency, µM (highest dose often 37.8 µM), inactives show at the top dose activity change, negative = inhibition, actives largely listed as inhibitors; 300,000 tested, 1.8% active; active = well fitted inhibition curve with a large enough effect; inconclusive = small, poorly fitted or top-dose-only effect, or effect the other way; inactive = flat fitted curve, though single readings scatter; tested in HEK293 cells; about a fifth of its hits are not listed in these tables; further: on the % scale 0 is the no-effect control and ±100 the full control effect; luciferase read-out
Cruzain inh noDet – qHTS Assay for Promiscuous and Specific Inhibitors of Cruzain (without detergent); Cruzipain (Trypanosoma cruzi), P25779; purified cruzain, Z-FR-AMC fluorescence, no detergent; Potency, µM, without a hit: max response, negative = inhibition, most hits filed as inhibitors; 200,000 tested, 2.3% active;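 further: plate controls were enzyme without inhibitor for no effect and buffer without enzyme for full effect; nearly all actives have a fitted effect of over 40% in size; top concentration of the series not given in the record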
Target sequence (P25779 123-467 limits assumed): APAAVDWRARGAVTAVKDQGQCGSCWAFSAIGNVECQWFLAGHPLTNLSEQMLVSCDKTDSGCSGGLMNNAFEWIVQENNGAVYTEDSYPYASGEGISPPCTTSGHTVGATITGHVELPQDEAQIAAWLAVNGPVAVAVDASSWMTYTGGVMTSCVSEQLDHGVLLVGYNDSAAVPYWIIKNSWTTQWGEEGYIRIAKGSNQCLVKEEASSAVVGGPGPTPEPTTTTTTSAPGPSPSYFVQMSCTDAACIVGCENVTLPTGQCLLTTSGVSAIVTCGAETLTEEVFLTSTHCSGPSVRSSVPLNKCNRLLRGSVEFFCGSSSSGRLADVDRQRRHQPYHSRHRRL
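Purified cruzain at 1.5 nM, pre-incubated 15 min with compound at room temperature in 100 mM sodium acetate pH 5.5, 5 mM DTT, 0.00005% Triton X-100. Reaction started with 2 uM Z-FR-AMC; AMC fluorescence increase over 60 s gives rate.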
NS1 inh – qHTS Assay for Inhibitors of Influenza NS1 Protein Function; S. cerevisiae slowed by influenza A NS1, growth recovery by OD600; Potency, µM (doses to about 46.1 µM), without a hit: top-dose activity, positive = more growth; 270,000 tested, 0.4% active; AID 2326, 2010; active means well fitted rising curve with a large enough effect; inconclusive means small, poorly fitted or top-dose-only effect; inactive means no such curve, though single readings can be large or run the other way; further: nearly all actives have a fitted effect of over 50% in size
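OD600 was taken as the measure of yeast growth restored by compound in an NS1-expressing S. cerevisiae strain. Cells had been washed out of glucose medium and diluted 1:100 into galactose -URA medium, pH 6.0.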
SARS PLpro yeast – qHTS of Yeast-based Assay for SARS-CoV PLP; S. cerevisiae expressing SARS-CoV PLpro, growth rescue; control for the full effect not named in the record; Potency, µM (doses to about 32.9 µM), inactives show at the highest dose activity, positive = growth rescue; 330,000 tested, 0.19% active; AID 485353, 2010; active means well fitted rising curve with a large enough effect; inconclusive means small, poorly fitted or top-dose-only effect; inactive means no such curve, though single readings can be large or run the other way; further: 0% is about no effect; nearly all actives have a fitted effect of over 55% in size; growth read by luminescence after 48 h
Cruzain Triton – qHTS Assay for Promiscuous and Specific Inhibitors of Cruzain (with detergent); purified cruzain, Z-FR-AMC fluorescence, 0.01% Triton; Cruzipain (Trypanosoma cruzi), P25779; Potency, µM, without a hit: max response, negative = inhibition, actives largely listed as inhibitors; AID 1478, 2009; 200,000 tested, 0.43% active;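 further: plate controls were neutral wells for no effect and buffer without enzyme for full effect; nearly all actives have a fitted effect of over 40% in size; top concentration of the series not given in the record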
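Cysteine protease activity tested under reducing, mildly acidic conditions (100 mM sodium acetate pH 5.5, 5 mM DTT) plus 0.01% Triton X-100. Cruzain 1.5 nM; substrate Z-FR-AMC 2 uM; 15 min compound preincubation at room temperature.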
RE007 growth inh – qHTS Assay for Inhibitors of the HIV-1 protein Vpr | AID 651644, 2012 | Potency, µM (doses to about 92.2 µM), for the others: at the top dose activity change, negative = less growth | 360,000 tested, 0.21% active | S. pombe RE007 Vpr strain, BacTiter-Glo ATP luminescence, 24 h; control for the full effect not named in the record; active = well fitted falling curve with a large enough effect; inconclusive = small, poorly fitted or top-dose-only effect; inactive = no such curve, though single readings can be large or run the other way;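 further: on the % scale 0 is the no-effect control and ±100 the full control effect; nearly all actives have a fitted effect of over 50% in size; the assay follows cell death caused by Vpr and the record does not say whether a fall means rescue or toxicity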
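Fission yeast strain RE007, carrying one chromosomally integrated HIV-1 vpr copy, was seeded at OD 0.01 in PMG+AL medium with 23 nL pinned compound. After 24 h at 30 °C and 99% humidity, viability was read by BacTiter-Glo luminescence.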
LASV entry inh – qHTS for Inhibitors of binding or entry into cells for Lassa Virus; Lassa virus pseudotype entry inhibition, cell reporter; control for the full effect not named in the record; Potency, µM (titrated, usually from 37.9 µM), for the others: at the top dose activity change, negative = inhibition, usual class: inhibitors; 300,000 tested, 1.2% active; active means well fitted inhibition curve with a large enough effect; inconclusive means small, poorly fitted or top-dose-only effect, or effect the other way; inactive means flat fitted curve, though single readings scatter; tested in HEK293 cells; further: on the % scale 0 is the no-effect control and ±100 the full control effect; nearly all actives have a fitted effect of over 50% in size; luciferase read-out
StopGo reporter – High Throughput Screening for Foot and Mouth Disease Virus Antivirals; Potency, µM (top dose mostly 57.9 µM), without a hit: at the highest dose signal change, negative = less light; 410,000 tested, 1.2% active; human cells with a luciferase reporter of 2A StopGo recoding; control for the full effect not named in the record; active = well fitted falling curve with a large enough effect; inconclusive = small, poorly fitted or top-dose-only effect; inactive = no such curve, though single readings can be large or run the other way; tested in HEK293T cells; further: on the % scale 0 is the no-effect control and ±100 the full control effect; nearly all actives have a fitted effect of over 45% in size; luciferase light after 4 h
Starred values were filed as active, the others as inactive; u = inconclusive; x = not tested or not shown; & = joins results of further samples; [ ] = dose if it differs, or a comment. Unless noted, the call rests on the fitted dose curve; in most records, active means well fitted curve in the direction sought with a large enough effect; inconclusive means small, poorly fitted or top-dose-only effect, or another doubt; inactive means no such curve, though single readings can be large; an effect the other way counts as inactive or inconclusive. Potency means the concentration at half of the fitted maximal effect.

Value order: MARV entry inh | Cruzain inh noDet | NS1 inh | SARS PLpro yeast | Cruzain Triton | RE007 growth inh | LASV entry inh | StopGo reporter
> Cc1ccc(N2C(=O)CC(N(CCc3ccccc3)C(=S)Nc3ccc(N(C)C)cc3)C2=O)cc1 (stereo not given)
 : -2% | u | u | 2% | 0.7% | 1% | u | -39%
> COC(=O)CC1c2ccccc2S(=O)(=O)N1Cc1ccccc1 (stereo not given)
 : x | x | 2% | 1% | x | 10% | x | 25%
> Cc1nc(Nc2ccccc2C(F)(F)F)sc1C(=O)N(C)C
 : u | x | x | -2% | x | -10% | -22%[46.1 µM] | 26%
> COCCN(Cc1cc2cc(C)ccc2nc1Cl)C(=O)Nc1ccccc1C
 : -15% | 8% | 2% | -7% | -4.1% | 2% | -21% | x
> Cc1cc(O)ccc1NC(=S)NC(=O)c1cncc(Br)c1
 : x | x | -33% | 1% | x | -8% | x | 33%[activator]
> Cc1cccc(C)c1OC(=O)C(c1ccccc1)c1ccccc1
 : u | 0% | -13% | 3% | -8.5% | 14% | -4% | 0%
> O=C(Cc1ccccc1)N/N=C/c1ccc(-c2ccc([N+](=O)[O-])cc2)o1
 : 5% | 0% | -12% | -3% | -5.7% | 24% | -24% | -1%
> CCOc1ccccc1NC(=O)Cn1c(=O)n(-c2ccccc2)c(=O)c2oc3ccccc3c21
 : 0% | -26% | 16% | 21% | -2.4% | 11% | -1% | u
> CCN1C(=O)[C@H]2[C@@H](c3ccc(C)cc3)N3C(=O)N(c4ccccc4)C(=O)[C@@]3(Cc3ccc(Cl)cc3)[C@H]2C1=O
 : x | x | 9% | 1% | x | 2% | x | -10%
> Cn1c(=S)n(/N=C/c2ccc3c(c2)OCO3)c2ccccc21
 : u | 4% | -1% | -3% | -1.2% | -1% | -1% | -8%
> O=C(O)c1cccc(S(=O)(=O)Nc2ccc3[nH]c(=O)[nH]c3c2)c1
 : -7%[46.1 µM] | x | -8% | 0% | x | 5% | 18% | -8%
> O=C(O)CC(c1ccccc1F)N1Cc2ccccc2C1=O (stereo not given)
 : x | x | 6% | 1% | x | 1% | x | -23%
> COc1cc(C2Oc3nc(SC)nnc3-c3ccccc3N2C(C)=O)cc(Cl)c1OC (stereo not given)
 : -15%[46.1 µM] | 6% | x | x | -6.8% | x | 6%[46.1 µM] | -14%
> COc1ccccc1C(=O)OCCN1CCOCC1
 : -7% | -15% | 0% | -8% | 3.4% | -13% | 0% | x
> O=C(Nc1c2c(nn1-c1ccc(F)cc1)CS(=O)(=O)C2)c1ccc(S(=O)(=O)N2CCOCC2)cc1
 : 13%[46.1 µM] | x | x | -2% | x | -5% | 12% | 1%
> CC(=O)Nc1ccc(C(=O)c2ccccc2)cc1
 : 0% | -9% | -12% | -3% | 0.8% | 19% | u | 15%
> COc1ccc(OCC(=O)NNC(=O)c2cc3ccccc3o2)cc1
 : 6% | -27% | 18% | 17% | -11% | -18% | 1% | 0%
> O=C(NNC1=NCCCCC1)c1ccccc1
 : u | 10% | u | -3% | 2.6% | 13% | 5% | 34%[activator]
> O=C1Nc2cc(C(=O)N3CCOCC3)ccc2SC1N1CCOCC1 (stereo not given)
 : 6% | -10% | -1% | -18% | 5.9% | 1% | 7% | -9%
> COc1cccc(C2(O)CCN(CC(=O)Nc3nc(C)cs3)CC2)c1
 : -8% | x | -1% | -1% | x | -10% | 1% | -25%
> Fc1cccc(CN2CCN(c3nc4nonc4nc3NC3CC3)CC2)c1
 : x | x | 9% | 0% | x | -8% | x | -23%
> N#CC1(NC(=O)COC(=O)CN2C(=O)c3ccccc3C2=O)CCCCC1
 : 14%[46.1 µM] | x | x | 3% | x | -11% | -1% | 13%
> COc1ccc(-n2nc3c(c2NC(=O)C(C)Oc2ccccc2)CS(=O)(=O)C3)cc1 (stereo not given)
 : x | x | 16% | 13% | x | -11% | x | -15%
> Cc1csc(NC(=O)c2cccc(Cn3nc(C)c(Br)c3C)c2)n1
 : -19% | 6% | 1% | -12% | -5.3% | 0% | 3% | u
> Cc1coc(C)c1C(=O)CC1(O)C(=O)N(C)c2ccc(Cl)cc21 (stereo not given)
 : x | x | 3% | 0% | x | -11% | x | 4%
> CS(=O)(=O)N(CC(=O)N/N=C/c1ccccc1C(=O)O)c1cccc(Cl)c1Cl
 : -2%[46.1 µM] | x | 0% | 0% | x | 8% | 17%[46.1 µM] | 2%
> COc1ccccc1N1CCN(Cc2nnc(-c3ccccc3C)o2)CC1
 : 7%[46.1 µM] | 3% | x | x | -3.4% | x | -5%[46.1 µM] | 0%
> O=C1c2ccccc2C(=O)N1CN(C(=O)c1ccccc1[N+](=O)[O-])c1ccc(F)cc1
 : u | 4% | -6% | 0% | -5.7% | 11% | u | -15%
> Cc1ccc(C(=O)N2CCN(C3CCCCC3)CC2)s1
 : -4% | -3% | 9% | 0% | -1.6% | -5% | 5% | 3%
> COc1ccc(NC(=S)N(CCN(C)C)C(C)c2ccco2)cc1 (stereo not given)
 : u | 3% | 4% | 3% | 0.5% | 7% | u | 27%
> CN1C(=O)c2ccccc2C(C(=O)O)C1c1cccc(Cl)c1 (stereo not given)
 : 7% | -3% | 12% | 15% | -0.3% | -10% | 13% | -4%
> c1ccc(N=P(N2CCOCC2)(N2CCOCC2)N2CCOCC2)cc1
 : 9% | -2% | 1% | -2% | 5.4% | 0% | 7% | -23%
> O=C(CN1C(=O)C2CCCCN2C(=O)c2ccccc21)N1CCCc2ccccc21 (stereo not given)
 : -4% | -10% | 3% | 2% | 0.3% | 11% | u | 5%
> CC(=O)N1c2ccc(S(=O)(=O)NCC3CCC(C(=O)NCc4ccc(C)cc4)CC3)cc2CC1C (stereo not given)
 : x | x | -5% | u | x | -16% | x | u
> Cc1cccc(NC(=O)c2cc3c(n(-c4ccccc4)c2=O)CCCC3=O)n1
 : 2%&2% | 9% | -2% | 0% | 2.2% | 2% | -2% | -9%
> Cn1c(=O)c2c(nc(CN3CCN(c4ccccc4)CC3)n2CCN2CCOCC2)n(C)c1=O
 : 6%&6% | 28% | -5% | 0% | 3.9% | -13% | -4% | -9%
> CCOc1ccc(CCNC(=O)COC(=O)COc2ccccc2C)cc1OCC
 : u | x | x | 1% | x | -11% | -12% | 0%
> COc1cccc(CNC(=O)N2CCN(S(=O)(=O)c3ccc(C)cc3)CC2)c1
 : 13%[46.1 µM] | x | -10% | 1% | x | 11% | x | -10%
> Cc1ccc(/C=C2/NC(=O)N(c3ccccc3)C2=O)o1
 : 3% | -7% | -24% | -26% | -1.3% | 63µM* | 20% | 22%
> COCC(C)NC(=O)c1cc2cc(OC)ccc2[nH]1 (stereo not given)
 : -2% | x | -2% | -2% | x | 6% | -1% | -15%
> COC(=O)CSc1nnc(CNC(=O)c2cccc(C)c2)n1-c1ccccc1OC
 : 2% | 5% | 5% | 0% | 5.7% | 6% | 27% | -18%
> Cc1cc([N+](=O)[O-])cc2c1NC(=O)C2(O)N1CCCC(C)C1 (stereo not given)
 : x | x | 1% | -2% | x | -20% | x | -4%
> Cc1cc(C)c(NC(N)=S)c(C)c1
 : 1% | x | 6% | 1% | x | 0% | -16% | -7%
> CCCCCN(C(=O)CCC(=O)OCC(=O)N1CCCCC1C)c1c(N)n(CCCC)c(=O)[nH]c1=O (stereo not given)
 : 8% | x | 5% | -1% | x | -22% | -2% | -2%
> COc1ccc(CCNC(=O)c2c(N)n(CCN3CCOCC3)c3nc4ccccc4nc23)cc1OC
 : u | u | -11% | 4% | -1.8% | 14% | 18µM* | x
> CCOC(=O)c1c(-c2ccc(OC)cc2)oc2ccc(OCC(N)=O)cc12
 : -19%[46.1 µM] | x | 6% | 2% | x | -9% | -22%[46.1 µM] | -14%
> CC(Sc1nnc(-c2ccco2)n1-c1ccccc1)C(=O)NCC1CCCO1 (stereo not given)
 : u | x | x | 1% | x | 11% | 14% | -24%
> Cc1cc(=O)[nH]c(SCc2ccccc2)n1
 : -3%[46.1 µM] | x | 10% | 6% | x | -1% | 2%[46.1 µM] | -2%
> O=c1c2sc3ccccc3c2n(Cc2ccc(F)cc2)c(=O)n1Cc1ccccc1
 : 0%[46.1 µM] | -1% | x | x | 6.0% | x | 5%[46.1 µM] | 0%
> C#CCn1cnc2c(cnn2-c2ccc(C)c(C)c2)c1=O
 : 10% | -4% | 0% | -3% | -2.7% | 7% | 0% | 31%[activator]
> COc1cc(NC(=S)NCCN2CCOCC2)cc(OC)c1
 : u | -8% | 22% | 8% | -0.6% | -3% | 0% | 17%
> Cc1cc(N2CCN(c3ccc(F)cc3)CC2)n2nc(-c3ccc(Cl)cc3)nc2n1
 : -8%[46.1 µM] | -2% | x | x | -0.2% | x | 10%[46.1 µM] | -23%
> Cc1ccc2occ(/C=N/NC(N)=S)c(=O)c2c1
 : 5% | -21% | -19% | 2% | -6.3% | -22% | 13% | 24%
> O=C(Nc1ccccc1)N1CCn2c(nc3ccccc32)C1
 : -5% | -11% | -9% | 8% | 6.7% | 16% | -3% | 17%
> CCOCCOC(=O)C1=C(C)N(C)C(=O)NC1c1cc(Cl)c(O)c(OCC)c1 (stereo not given)
 : 2% | 14% | -1% | -2% | -2.1% | -9% | 1% | 18%
> Cn1nnnc1SCCNCc1ccc(OCc2ccccc2)cc1
 : u | -9% | x | x | 1.4% | x | -5%[46.1 µM] | -5%
> CN1CCCCC1=NCCCn1cnc2c1c(=O)n(C)c(=O)n2C
 : -20% | 7% | -7% | -6% | 2.6% | -5% | 11% | 16%
> Cn1nnnc1SCC(=O)Nc1ccc(Oc2ccccc2)cc1
 : -10% | -10% | -7% | -10% | 2.3% | 11% | 18% | 24%

Screening results: PubChem, National Center for Advancing Translational Sciences (NCATS)
